# Cruzain Triton: cruzain (T. cruzi) inhibition with detergent | purified cruzain, Z-FR-AMC fluorescence, 0.01% Triton | P25779 | AID 1478 | 0.43% of 200,000 active | Potency, µM, for inactives: max response, negative = inhibition, most hits filed as inhibitors; active means well fitted curve in the direction sought with a large enough effect; inconclusive means small, poorly fitted or top-dose-only effect, or another doubt; inactive means no such curve, though single readings can be large; an effect the other way counts as inactive or inconclusive;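 further: plate controls were neutral wells for no effect and buffer without enzyme for full effect; nearly all actives have a fitted effect of over 40% in size; top concentration of the series not given in the record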
# Target sequence (P25779 123-467 limits assumed): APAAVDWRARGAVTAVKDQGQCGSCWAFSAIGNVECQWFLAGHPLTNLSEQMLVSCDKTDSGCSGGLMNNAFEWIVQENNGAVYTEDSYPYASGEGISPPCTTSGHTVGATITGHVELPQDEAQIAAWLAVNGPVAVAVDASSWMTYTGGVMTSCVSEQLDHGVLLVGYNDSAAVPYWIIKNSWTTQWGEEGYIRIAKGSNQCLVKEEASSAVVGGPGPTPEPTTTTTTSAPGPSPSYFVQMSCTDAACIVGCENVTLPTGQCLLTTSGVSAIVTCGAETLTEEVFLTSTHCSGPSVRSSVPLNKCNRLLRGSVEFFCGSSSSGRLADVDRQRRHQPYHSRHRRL
#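 Detergent-containing run (0.01% Triton X-100) in acetate buffer pH 5.5 with 5 mM DTT: enzyme at 1.5 nM final, 15 min compound preincubation at room temperature, then 2 uM Z-FR-AMC substrate. Activity taken as 60 s fluorescence increase at 360/450 nm.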
# Cruzain noTriton: inhibitors of Trypanosoma cruzi cruzain without detergent | purified cruzain, Z-FR-AMC fluorescence, no detergent | Potency, µM, without a hit: max response, negative = inhibition, most hits filed as inhibitors | 2.3% of 200,000 active | AID 1476; active means well fitted curve in the direction sought with a large enough effect; inconclusive means small, poorly fitted or top-dose-only effect, or another doubt; inactive means no such curve, though single readings can be large; an effect the other way counts as inactive or inconclusive;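 further: plate controls were enzyme without inhibitor for no effect and buffer without enzyme for full effect; nearly all actives have a fitted effect of over 40% in size; top concentration of the series not given in the record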
#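 Purified cruzain at 1.5 nM, pre-incubated 15 min with compound at room temperature in 100 mM sodium acetate pH 5.5, 5 mM DTT, 0.00005% Triton X-100. Reaction started with 2 uM Z-FR-AMC; AMC fluorescence increase over 60 s gives rate.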
# NS1 inh: influenza NS1 inhibition. S. cerevisiae slowed by influenza A NS1, growth recovery by OD600. Potency, µM (doses to about 46.1 µM), for inactives: top-dose activity, positive = more growth. 0.4% of 270,000 active; further: actives are rising curves; nearly all actives have a fitted effect of over 50% in size
#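 Read-out: OD600 growth recovery of NS1-expressing budding yeast. Cells grown overnight at 30C in -URA glucose medium, washed, resuspended and diluted 1:100 in 2% galactose assay medium, pH 6.0. Same strain lacking NS1 served as positive control.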
# 2A StopGo: FMDV 2A StopGo reporter, luciferase signal; Potency, µM (doses to about 57.9 µM), for inactives: at the highest dose signal change, negative = less light; 1.2% of 410,000 active; human cells with a luciferase reporter of 2A StopGo recoding; control for the full effect not named in the record; AID 1159524; active = well fitted falling curve with a large enough effect; inconclusive = small, poorly fitted or top-dose-only effect; inactive = no such curve, though single readings can be large or run the other way; tested in HEK293T cells; further: on the % scale 0 is the no-effect control and ±100 the full control effect; nearly all actives have a fitted effect of over 45% in size; luciferase light after 4 h
# RE007 growth inh: less growth of the S. pombe RE007 Vpr strain | S. pombe RE007 Vpr strain, BacTiter-Glo ATP luminescence, 24 h; control for the full effect not named in the record | Potency, µM (doses to about 92.2 µM), without a hit: top-dose activity change, negative = less growth | 0.21% of 360,000 active | AID 651644; active = well fitted falling curve with a large enough effect; inconclusive = small, poorly fitted or top-dose-only effect; inactive = no such curve, though single readings can be large or run the other way;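 further: on the % scale 0 is the no-effect control and ±100 the full control effect; nearly all actives have a fitted effect of over 50% in size; the assay follows cell death caused by Vpr and the record does not say whether a fall means rescue or toxicity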
#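 Fission yeast RE007 carrying one integrated HIV-1 vpr copy, seeded at OD 0.01 in PMG+AL medium with 23 nL pinned compound. Grown 24 h at 30 degrees; viability read by BacTiter-Glo luminescence after 5 min.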
# MARV entry inh: Marburg virus entry inhibition; Marburg virus pseudotyped entry inhibition, cell reporter; control for the full effect not named in the record; about a third of the inactives were read at about 46 µM; Potency, µM (titrated, usually from 37.8 µM), for the others: at the top dose activity change, negative = inhibition, most hits filed as inhibitors; 1.8% of 300,000 active; AID 540276; active = well fitted inhibition curve with a large enough effect; inconclusive = small, poorly fitted or top-dose-only effect, or effect the other way; inactive = flat fitted curve, though single readings scatter; tested in HEK293 cells; about a fifth of its hits are not listed in these tables; further: on the % scale 0 is the no-effect control and ±100 the full control effect; luciferase read-out
# SARS PLP yeast: SARS-CoV PLP inhibition in yeast; S. cerevisiae expressing SARS-CoV PLpro, growth rescue; control for the full effect not named in the record; Potency, µM (doses to about 32.9 µM), for inactives: at the top dose activity, positive = growth rescue; 0.19% of 330,000 active; AID 485353; further: 0% is about no effect; nearly all actives have a fitted effect of over 55% in size; growth read by luminescence after 48 h
# LASV entry inh: blocks Lassa virus binding to or entry into cells; Lassa virus pseudotype entry inhibition, cell reporter; control for the full effect not named in the record; Potency, µM (top dose mostly 37.9 µM), without a hit: top-dose activity change, negative = inhibition, actives largely listed as inhibitors; 1.2% of 300,000 active; active means well fitted inhibition curve with a large enough effect; inconclusive means small, poorly fitted or top-dose-only effect, or effect the other way; inactive means flat fitted curve, though single readings scatter; tested in HEK293 cells; further: on the % scale 0 is the no-effect control and ±100 the full control effect; nearly all actives have a fitted effect of over 50% in size; luciferase read-out
# * marks the source's active call; other numbers are inactive results; ? = inconclusive; . = no result given; & = joins results of further samples; [ ] = another dose, or the depositor's remark. Unless noted, the call rests on the fitted dose curve; in most records, active means well fitted rising curve with a large enough effect; inconclusive means small, poorly fitted or top-dose-only effect; inactive means no such curve, though single readings can be large or run the other way. Potency means the concentration at half of the fitted maximal effect.
SMILES,Cruzain Triton,Cruzain noTriton,NS1 inh,2A StopGo,RE007 growth inh,MARV entry inh,SARS PLP yeast,LASV entry inh
CN(CC(=O)Nc1cccc(F)c1)C(=O)CC1CCCCC1,.,.,.,10%,1%,1%,1%,15%
CCCCN1C(=O)c2cccc3cc(O)cc(c23)C1=O,.,.,.,-7%,0%,2%,.,15%
CCOC(=O)N1CCN(CC(O)COc2ccc3c(c2)CCC3)CC1 (stereo not drawn),.,.,-7%,15%,6%,.,1%,.
CCOP(=O)(OCC)c1nc(-c2ccccc2)oc1NCc1ccccc1,-3.1%,?,-50%,1%,5%,?,-7%,?
C(=N\Nc1nc(N2CCCC2)nc(N2CCCC2)n1)/c1ccncc1,.,.,.,-13%,-9%,1%[46.1 µM],-1%,-19%
Nc1nnc(CC(=O)NCc2ccccc2)s1,2.5%,9%,1%,-12%,7%,1%,-9%,0%
COc1ccc(C(=O)Nc2ccc(C(=O)O)cc2NC(=O)c2ccc(OC)cc2)cc1,.,.,10%,-19%,5%,.,2%,.
O=C(Nc1nncs1)C1COc2ccccc2O1 (stereo not drawn),0.5%,-8%,5%,56%[activator],13%,?,-10%,0%
OCc1cn(-c2ccc(Cl)cc2)nn1,.,.,.,-10%,-17%,5%[46.1 µM],1%,-10%[46.1 µM]
COC(=O)c1ccc(NC(=O)CSc2nncn2-c2ccccn2)cc1,.,.,1%,11%,-7%,1%[46.1 µM],0%,7%[46.1 µM]
Cc1nc2ccccc2c(=O)n1NC(=O)/C=C/c1ccccc1Cl,-3.3%,-6%,-3%,-4%,-27%,-3%[46.1 µM],1%,-5%[46.1 µM]
CCN(CC)CCN(C(=O)c1ccc(S(=O)(=O)N2CCCCC2)cc1)c1nc2cc3c(cc2s1)OCO3,.,.,.,-13%,-16%,?,0%,-14%
CCC(Cn1nnc2ccccc2c1=O)NC(=O)Nc1cc(OC)cc(OC)c1 (stereo not drawn),-2.3%,-1%,.,-20%,.,?,.,?
O=C(O)C1CC(=O)N(Cc2ccccc2)C1 (stereo not drawn),3.7%,11%,?,-6%,16%,6%,-5%,8%
Cc1nc2ccn(Cc3ccccc3)c(=O)c2cc1C(=O)NCc1ccccc1F,-8.0%,?,.,-17%,.,.,.,-1%[46.1 µM]
Cc1c(C(=O)NC2CCCCC2)oc2ccccc12,.,.,-35%,44%[activator],19%,?,-1%,10%
O=C(CS(=O)(=O)Cc1ccccc1)Nc1nnc(C(F)(F)F)s1,.,.,9%,39%[activator],-4%,22%[46.1 µM],0%,11%[46.1 µM]
COc1cc2ccccc2cc1C(=O)N1CCCC1,.,.,-6%,29%,3%,0%[46.1 µM],9%,-2%[46.1 µM]
COc1ccccc1CNC(=O)CCC(=O)N1CC(C)Sc2ccccc21 (stereo not drawn),-2.7%,6%,-23%,-12%&-4%,-12%,.,-5%,2%[46.1 µM]
CCSc1nnc(Cc2cc(=O)[nH]c(=O)[nH]2)n1-c1ccc(F)cc1,0.4%,1%,-47%,-7%,7%,?,3%,-1%
CCN1CCCC1CN(Cc1cc2ccc(C)c(C)c2[nH]c1=O)C(=O)Nc1ccccc1OC (stereo not drawn),0.2%,7%,10%,2%,5%,18µM*,7%,-1%
CCOc1ccc(N2C(=O)C3C4C=CC(CC4)C3C2=O)c([N+](=O)[O-])c1 (stereo not drawn),-3.2%,0%,13%,-21%,4%,?,4%,-2%
Nc1cc(N)nc(SCC(=O)Nc2ccc3c(c2)OCCCO3)n1,3.4%,6%,1.8µM*,-5%,-2%,28%,3%,16%
COc1ccc(NC2CCCN(C(=O)CCOc3ccccc3)C2)cc1 (stereo not drawn),.,.,-23%,-3%,9%,21%[46.1 µM],-1%,?
CCOCCc1nn2c(=O)cc(COC(=O)C(CC)c3ccccc3)nc2s1 (stereo not drawn),-3.4%,-1%,.,-25%,.,.,.,2%[46.1 µM]

# Some of the entries above, reformatted:
mol	Cruzain Triton	Cruzain noTriton	NS1 inh	2A StopGo	RE007 growth inh	MARV entry inh	SARS PLP yeast	LASV entry inh
CN(CC(=O)Nc1cccc(F)c1)C(=O)CC1CCCCC1	.	.	.	10%	1%	1%	1%	15%
CCCCN1C(=O)c2cccc3cc(O)cc(c23)C1=O	.	.	.	-7%	0%	2%	.	15%
CCOC(=O)N1CCN(CC(O)COc2ccc3c(c2)CCC3)CC1 (stereo not drawn)	.	.	-7%	15%	6%	.	1%	.
CCOP(=O)(OCC)c1nc(-c2ccccc2)oc1NCc1ccccc1	-3.1%	?	-50%	1%	5%	?	-7%	?
C(=N\Nc1nc(N2CCCC2)nc(N2CCCC2)n1)/c1ccncc1	.	.	.	-13%	-9%	1%[46.1 µM]	-1%	-19%
Nc1nnc(CC(=O)NCc2ccccc2)s1	2.5%	9%	1%	-12%	7%	1%	-9%	0%
COc1ccc(C(=O)Nc2ccc(C(=O)O)cc2NC(=O)c2ccc(OC)cc2)cc1	.	.	10%	-19%	5%	.	2%	.
O=C(Nc1nncs1)C1COc2ccccc2O1 (stereo not drawn)	0.5%	-8%	5%	56%[activator]	13%	?	-10%	0%
OCc1cn(-c2ccc(Cl)cc2)nn1	.	.	.	-10%	-17%	5%[46.1 µM]	1%	-10%[46.1 µM]
COC(=O)c1ccc(NC(=O)CSc2nncn2-c2ccccn2)cc1	.	.	1%	11%	-7%	1%[46.1 µM]	0%	7%[46.1 µM]
Cc1nc2ccccc2c(=O)n1NC(=O)/C=C/c1ccccc1Cl	-3.3%	-6%	-3%	-4%	-27%	-3%[46.1 µM]	1%	-5%[46.1 µM]
CCN(CC)CCN(C(=O)c1ccc(S(=O)(=O)N2CCCCC2)cc1)c1nc2cc3c(cc2s1)OCO3	.	.	.	-13%	-16%	?	0%	-14%
CCC(Cn1nnc2ccccc2c1=O)NC(=O)Nc1cc(OC)cc(OC)c1 (stereo not drawn)	-2.3%	-1%	.	-20%	.	?	.	?
O=C(O)C1CC(=O)N(Cc2ccccc2)C1 (stereo not drawn)	3.7%	11%	?	-6%	16%	6%	-5%	8%

# Next section:
SMILES,Cruzain Triton,Cruzain noTriton,NS1 inh,2A StopGo,RE007 growth inh,MARV entry inh,SARS PLP yeast,LASV entry inh
O=C(Nc1ccccc1)OCCCCCOC(=O)Nc1ccccc1,.,.,9%,-30%,5%,.,-9%,.
O=c1oc(-c2ccccc2)nc2ccsc12,0.4%,-3%,-51%,34%[activator],-4%,13%,-2%,6%
Cc1cn(C2CC(O)C(CO)O2)c(=O)n(Cc2ccccc2)c1=O (stereo not drawn),.,.,.,-14%,10%,?,.,4%
Cc1ccccc1NC(=O)Cc1nnc(SCC(=O)NC2CCCC2)n1C,.,.,9%,-2%,1%,0%[46.1 µM],-2%,23%[46.1 µM]
COc1ccc(C(=O)Oc2ccc3ccc(=O)oc3c2)cc1,.,.,0%,32%[activator],-6%,?,0%,8%
Cc1ccc(N(CC(O)Cn2c3ccccc3c3ccccc32)S(C)(=O)=O)cc1 (stereo not drawn),-6.0%,?,-1%,.,10%,?,-1%,-16%
Cc1nc2c(-c3ccccc3)c(C)nn2c(C)c1CCC(=O)N1CCC2(CC1)OCCO2,-4.2%,?,-14%,6%,8%,23%,7%,1%
CN(C(=O)c1ccncc1)C1CCS(=O)(=O)C1 (stereo not drawn),-2.3%,-7%,-6%,-8%,-5%,2%,-1%,13%
O=C(OCCN1CCOCC1)c1cccnc1,5.5%&5.5%,5%&-5%,4%&3%,25%,8%&0%,2%&-2%,-3%&5%,-14%&21%
O=C(O)c1cccc(N2C(=O)c3cccc(Oc4ccc(Cl)cc4)c3C2=O)c1,-5.5%,5%,22%,59%[activator],-7%,16%,?,-13%
CN(C)S(=O)(=O)c1ccc(-c2csnn2)s1,4.8%,-2%,6%,9%,5%,-20%[46.1 µM],3%,2%
CCOC(=O)Cc1csc(NC(=O)CSc2nc(=O)[nH]c3c2CCCC3)n1,.,.,.,-22%,-6%,-3%,-5%,3%
CC(C)(C)C(=O)C(Cl)C(=O)Nc1ccccc1 (stereo not drawn),.,.,-31%,-9%,-42%,.,-5%,.
CSCCC(NC(=O)c1ccc([N+](=O)[O-])cc1Cl)C(=O)OCC(=O)N(C)C (stereo not drawn),-24%,-23%,1%,-2%,?,?,22%,10%
COc1ccc(-n2c(COc3ccc4ccccc4c3)nnc2SCC(=O)NCc2ccco2)cc1,-1.8%,0%,26%,?,-7%,?,-3%,?
COC(=O)c1ccc(C(=O)OC)c(-n2c(=O)c3ccccc3c3ccccc3c2=O)c1,-6.1%,?,12%,?,.,?,16%,?
CCCC(=O)n1nc(-c2ccccc2)nc1N,-3.0%,-2%,1%,7%,-20%,4%,-21%,13%
CC(C)(C)c1cc[n+](-c2[nH]c(=O)sc2/C=N/N=C(\[O-])c2ccccc2)cc1,.,.,-12%,3%,9%,.,-2%,.
O=C(O)c1ccc2oc(SCC(=O)N3CCCCC3)nc2c1,-1.3%,-8%,1%,0%,-23%,-14%[46.1 µM],7%,1%
CCOc1ccccc1NC(=O)C1CCN(c2ccc(S(=O)(=O)N3CCCC3)cc2)CC1,3.3%,-25%,-13%,3%,1%,4%,3%,-10%
FC(F)(F)c1cccc(Oc2cc(C(F)(F)F)nc(-c3ccccn3)n2)c1,-4.7%,13%,12%,11%,13%,5%,-12%,10%
S=C(Nc1ccc2c(c1)OCO2)N1CCCC1,.,.,-4%,36%[activator],2%,.,1%,.
Cc1nc2sc(-c3ccccc3)cc2c(=O)n1N,.,.,-10%,40µM*,?,.,0%,.

# From PubChem BioAssay
